Source: PubChem BioAssay
HSV replic up: enhancers of HSV replication in host cells, fold increase, host cell viability; maximum fold increase; actives 0.005% (n = 220,000); HSV replication augmentation in cells;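 active = peak rise of 1.5-fold or more in the series; tested in PC3 cells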;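 note: first round at 10 µM; read as green reporter fluorescence; hits show the peak of a series up to 25 µM; 1 = signal of infected wells without compound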
INS promoter inh: inhibitors of insulin promoter-driven GFP, primary screen, imaging, TRM-6 cells (human fetal islet line), eGFP reporter, cell count; reporter expression induced with tamoxifen; inhibition, % at 2 µM; actives 0.9% (n = 130,000); AID 1273, 2008;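 active = inhibition above the mean plus 3 SD, with well images judged a real hit on visual review, cut at about 60% in these data, passing the limit was not always enough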
RGS16-Gao: modulators of RGS16 binding to Galphao, primary screen, biochemical, human proteins, multiplexed bead flow cytometry; AID 1441, 2008; actives 0.38% (n = 220,000); bead-based flow cytometry RGS16-Galphao binding, fluorescence; actives lie on both sides; binding response (% of control), % at 10 µM; Regulator of G-protein signaling 16 (Homo sapiens) + Guanine nucleotide-binding protein …;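 active = below 25% or above 175%, edge rows of some plates excepted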;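 note: Galphao activated by GDP with aluminum fluoride before binding; 100% = wells without compound and 0% = beads without RGS; some results beyond the cut were filed as inactive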
Target sequence (O15492 whole entry, looked up): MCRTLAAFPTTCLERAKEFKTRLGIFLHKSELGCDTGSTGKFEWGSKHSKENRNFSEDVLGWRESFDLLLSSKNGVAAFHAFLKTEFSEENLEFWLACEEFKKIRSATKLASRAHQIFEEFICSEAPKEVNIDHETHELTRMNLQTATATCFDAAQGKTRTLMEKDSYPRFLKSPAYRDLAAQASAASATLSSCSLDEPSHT
Target sequence (P09471 whole entry, looked up): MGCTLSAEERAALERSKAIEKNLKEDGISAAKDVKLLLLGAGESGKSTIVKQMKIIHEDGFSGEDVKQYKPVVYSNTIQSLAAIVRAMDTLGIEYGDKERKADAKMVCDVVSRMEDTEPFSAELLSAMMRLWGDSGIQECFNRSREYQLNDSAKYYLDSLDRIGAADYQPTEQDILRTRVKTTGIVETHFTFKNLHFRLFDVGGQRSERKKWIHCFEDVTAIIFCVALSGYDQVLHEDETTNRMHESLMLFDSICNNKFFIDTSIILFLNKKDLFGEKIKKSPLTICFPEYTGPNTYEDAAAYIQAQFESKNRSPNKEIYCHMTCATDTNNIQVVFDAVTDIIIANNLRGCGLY
GALR2 agonist: GALR2 receptor agonists, primary screen, cell-based. AID 803, 2007. GALR2-expressing cells, agonist activation read-out. activation, %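 (tested at 5 µM)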. actives 0.48% (n = 140,000);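 active = above mean plus 3 SD of all compounds, about 5% in these data, not always enough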;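 note: 0% = vehicle buffer wells and 100% = reference agonist at full effect; tested in CHO reporter cells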
Target sequence (O43603 whole entry, looked up): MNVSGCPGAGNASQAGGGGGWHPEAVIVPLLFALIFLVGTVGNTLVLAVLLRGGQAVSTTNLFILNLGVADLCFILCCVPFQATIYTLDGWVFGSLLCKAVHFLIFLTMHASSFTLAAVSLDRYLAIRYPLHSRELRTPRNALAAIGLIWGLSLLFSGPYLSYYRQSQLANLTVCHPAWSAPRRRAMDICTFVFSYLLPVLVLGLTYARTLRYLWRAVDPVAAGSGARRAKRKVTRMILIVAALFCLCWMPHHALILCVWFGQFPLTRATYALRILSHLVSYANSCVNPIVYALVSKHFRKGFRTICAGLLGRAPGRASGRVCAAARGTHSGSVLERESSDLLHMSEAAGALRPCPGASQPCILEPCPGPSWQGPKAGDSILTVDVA
PKD1 kinase inh: inhibitors of human PKD1 kinase, biochemical, fluorescence polarization; AID 797, 2007; inhibition, %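 (about 10 µM by stock and volumes)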; actives 0.056% (n = 200,000); PKD1 kinase fluorescence polarization assay;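 active = inhibition of 50% or more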;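 note: controls were vehicle for no effect and a reference inhibitor for full effect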
INS promoter inh cell count: further read-out of INS promoter inh, marked with its call; normalized cell count, %; measured here: cell count, toxicity; reference of the scale not given here;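 cells exposed to compound for 48 h; stained nuclei by imaging scaled within each plate; lower means fewer cells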
HSV replic up primary fold: also measured in HSV replic up; calls as there; fold increase; compound at 10 µM; measured here: primary screen fold increase 10 uM; tested in PC3 cells;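 GFP signal in the first replicate; 1 = infected wells without compound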
* marks the source's active call; other numbers are inactive results; i = inactive; . = not tested or not shown.

SMILES | HSV replic up | RGS16-Gao | HSV replic up primary fold | INS promoter inh cell count | GALR2 agonist | PKD1 kinase inh | INS promoter inh
CC#CC[N+](C)(CC#CC)CC(=O)c1ccccc1 | i | 101 | 0.96 | 95 | . | -3 | 7
CCCCn1c(SCc2ccc(Cl)cc2)nc2c1c(=O)[nH]c(=O)n2C | i | 104 | 0.88 | 59 | -1.6 | -9 | 4
Cc1nn(CC(=O)NCCCc2ccccc2)c(C)c1[N+](=O)[O-] | i | 103 | 0.88 | . | . | -5 | .
COc1ccc(N2CCN(C(c3cc(OC)ccc3OC)c3nnnn3CC3CCCO3)CC2)cc1 (stereo not drawn) | i | 94 | 1 | 79 | -1.9 | 0 | -10
COCCN(CC(=O)NC1CCCCC1)C(=O)/C=C/C(=O)c1ccc(OC)cc1O | i | 84 | 0.63 | . | . | -7 | .
CC1(NC(=S)N(CCO)CCO)CCS(=O)(=O)C1 (stereo not drawn) | i | 108 | 1.1 | 115 | -0.4 | -4 | 4
COc1ccc(C=NCC2OCCc3ccccc32)cc1OC (stereo not drawn) | i | 110 | 0.91 | . | -0.6 | 0 | .
Cc1ccc(Cl)cc1N(CC(=O)NCc1ccc2c(c1)OCO2)S(C)(=O)=O | i | 100 | 1 | . | . | -2 | .
CCOc1ccc2[nH]c3c(NCCc4ccc(OC)c(OC)c4)ncnc3c2c1 | i | 96 | 0.85 | . | . | . | .
CC(=O)N1C(=O)N(C(C)=O)C2C1N(C)C(=O)N2C(C)=O (stereo not drawn) | i | 104 | 0.93 | . | . | -4 | .
O=C(/C=C/c1ccc(F)cc1)NCC1(c2ccccc2)CCOCC1 | i | 201 | 0.98 | 110 | -0.4 | -4 | -18
COc1cccc(Oc2cnc(N)nc2-c2ccc(OC)cc2O)c1 | i | 97 | 0.58 | 25 | -0.1 | -9 | -62
O=C(CCN1CCN(c2ccccc2)CC1)NNC(=S)Nc1ccccc1Cl | i | 98 | 0.91 | . | . | -7 | .
CC(C)CCOc1ccc(C(CC(N)=O)C(=O)O)cc1 (stereo not drawn) | i | 102 | 0.97 | 65 | -0.8 | 1 | -408
CCOCCc1c(O)nc(SCC)[nH]c1=O | i | 97 | 1.1 | . | . | . | .
CC(C)C(CCNC(=O)CC(Cc1ccccc1)c1ccco1)c1ccco1 (stereo not drawn) | i | 92 | 0.89 | 88 | -0.5 | -11 | 16
O=C(O)CCCCCn1c(SCc2cc(=O)n3ccccc3n2)nc2ccsc2c1=O | i | 99 | 0.94 | 81 | -1.5 | -9 | -12
CCC(=O)Nc1ccccc1C(=O)OC(c1ccccc1)c1ccccc1 | i | 60 | 1.1 | 70 | -0.7 | 3 | -7
N#CC1=C(N)C(C#N)(C#N)C2(CCC3(CC2)OCCO3)C2CC3(CC=C12)OCCO3 (stereo not drawn) | i | 107 | 1 | . | -0.8 | 6 | .
CCCC(=O)c1cc(F)c(N2CCN(S(=O)(=O)c3ccccc3)CC2)cc1C | i | 99 | 0.91 | 162 | -1.5 | 5 | -4
O=C(O)C1CCCCC1C(=O)NCCC(c1ccccc1)c1ccccc1 (stereo not drawn) | i | 135 | 0.78 | 131 | -3.0 | -4 | -32
Cc1ccc(-c2nc3ccccc3s2)cc1S(=O)(=O)N1CCOCC1 | i | 107 | 0.85 | 191 | -0.6 | -3 | 0
Cc1cc2c(cc1C)CSC(c1c(O)ccc3ccccc13)SC2 | i | 100 | 0.96 | 110 | -0.4 | -5 | 48
COc1ccc(-c2c(C)nn3c(N4CCC5(CC4)OCCO5)cc(C)nc23)cc1OC | i | 98 | 0.87 | . | -1.6 | -10 | .
COC(=O)C1=C(C)Nc2[nH]c(=S)[nH]c(=O)c2C1c1ccc(OC)cc1 (stereo not drawn) | i | 97 | 0.86 | . | . | -4 | .
COc1cc(OC)cc(-n2nnnc2SCC(=O)NCCc2ccc(OC)c(OC)c2)c1 | i | 102 | 0.99 | 130 | . | 3 | -4
Cc1ccc(C(=O)c2ccc(C)cc2)cc1 | i | 104 | 1 | . | . | 3 | .
CN(c1ccc(S(=O)(=O)N2CCOCC2)cn1)C1CCCCC1 | i | 102 | 0.95 | 120 | -2.1 | -5 | 7
C=C(C)C1CC=C(C)/C(=N/NC(=O)COc2cccc3ccccc23)C1 (stereo not drawn) | i | 105 | 0.76 | 114 | -0.4 | 1 | 20
CCc1cccc(NC(=O)Nc2ccc3c(c2)OCO3)c1 | i | 95 | 1.2 | . | . | 0 | .
COc1ccc(-c2ccnc(SCC(=O)c3ccc(OC)c(OC)c3)n2)cc1 | i | 97 | 0.95 | . | 0.8 | 1 | .
COCCNS(=O)(=O)c1cc(F)ccc1OC | i | 98 | 0.9 | 98 | -0.2 | -4 | 0
O=C(COc1ncnc2ccccc12)NCCc1ccc(F)cc1 | i | 109 | 1 | 124 | . | -8 | 0
Cc1ccc(/C=C/C(=O)c2nc3ccccc3[nH]2)cc1 | i | 96 | 0.98 | . | -1.2 | 1 | .
N#CC1=C2SCN(Cc3ccco3)CN2C(=O)CC1c1ccc(Cl)cc1 (stereo not drawn) | i | 78 | 0.79 | 66 | -0.7 | 8 | 27
Cc1ccc(OCCCC(=O)Nc2nnc(C3CCCO3)s2)c(C)c1 (stereo not drawn) | i | 102 | 0.99 | . | . | -4 | .
CCn1c(SCC(=O)Nc2nnc(C)s2)nnc1-c1ccncc1 | i | . | 1 | 114 | -0.1 | -4 | -37
Cc1ccc(S(=O)(=O)N2CCN(S(C)(=O)=O)C2)cc1 | i | 99 | 0.98 | . | -0.6 | 4 | .
S=C1COC(c2ccccc2)N1c1ccccc1 (stereo not drawn) | i | 92 | 1 | 78 | -4.5 | -8 | -125
Cc1ccc(CN2CCN(/N=C/c3ccc(C(=O)O)cc3)CC2)cc1 | i | 98 | 1 | 95 | -1.3 | 2 | 46
CCOc1ccccc1C1C(C(N)=O)=C(C)Nc2nc(-c3ccc(OC)cc3)nn21 (stereo not drawn) | i | 105 | 0.86 | 170 | -0.5 | 1 | -62
CCOC(=O)c1cc(-c2csc(-c3ccc(C(C)(C)C)cc3)n2)on1 | i | 105 | 0.98 | . | . | . | .
COc1ccc(-c2cn(-c3ccc(C)cc3C)c(=O)[nH]2)cc1OC | i | 126 | 0.95 | 55 | . | 11 | -36
O=C(O)c1ccc(C(=O)Nc2cccc(NC(=O)C3CCCO3)c2)cc1 (stereo not drawn) | i | 106 | 0.79 | 76 | -2.8 | 0 | 6
O=C(COc1ccc2ccccc2c1)NC1=NCCS1 | i | 94 | 0.94 | 64 | -1.6 | -8 | -9
CCC(c1nc2ccccc2c(=O)n1-c1nc2ccccc2s1)N1C(=O)c2ccccc2C1=O (stereo not drawn) | i | 98 | 0.93 | 100 | -0.3 | -7 | -61
O=C(CSc1nc2ccccc2c(=O)[nH]1)N1CCOCC1 | i | 90 | 1 | 110 | -1.2 | 4 | 26
CC(C)(C)NC(=O)NC(=O)COc1ccccc1C#N | i | 119 | 0.89 | 122 | 0.4 | 9 | -8
O=C(OCc1ccc(C(=O)c2ccccc2)cc1)c1cccc(-c2nnc(-c3ccccc3)o2)c1 | i | 96 | 0.91 | 39 | -1.4 | -13 | 51
COc1ccc(CCNC(=O)CN(C2CCCCC2)S(C)(=O)=O)cc1OC | i | 32 | 1 | . | -0.4 | -8 | .
Cc1ccc2ccc(C3C(=O)c4ccccc4C3=O)nc2c1 | i | . | 0.91 | 104 | -1.6 | -3 | -14
COc1ccc(-c2nc(-c3ccccn3)no2)cc1 | i | 103 | 0.89 | . | . | -3 | .
CC(C)C1NC(=S)N(C2CCCCC2)C1=O (stereo not drawn) | i | 105 | 1 | 154 | -0.6 | -1 | 17
CCN1CCN(C(=S)c2ccc(OCC(=O)N3CCOCC3)cc2)CC1 | i | 5.2* | 0.79 | 104 | -1.9 | -3 | 29
COc1cccc(C(=O)c2c[nH]c(C(=O)NCc3cccs3)c2)c1 | i | 103 | 0.91 | . | -0.7 | -2 | .
O=C(Nc1nc2ccsc2c(=O)s1)c1ccco1 | i | 101 | 1.1 | . | . | . | .
O=C(O)c1[nH]c2ccc(Cl)cc2c1CCN1C(=O)c2ccccc2C1=O | i | 99 | 0.94 | . | . | . | .
CC1C2CC(C(CN(C)C)/C2=N/O)C1(C)C (stereo not drawn) | i | 103 | 1 | 117 | -2.2 | 2 | -36
Cc1nnsc1C(=O)NC(=O)Nc1ccc(F)c(Cl)c1 | i | 99 | 1 | . | . | . | .
Cc1ccc(-c2cc(-c3ccccc3Cl)[nH]n2)c(O)c1 | i | 102 | 1 | . | 1.0 | 1 | .

New compounds follow.
SMILES | HSV replic up | RGS16-Gao | HSV replic up primary fold | INS promoter inh cell count | GALR2 agonist | PKD1 kinase inh | INS promoter inh
CN(C)c1ccc(P(=O)(OC2CCCCC2)C(Nc2ccccc2)c2cccnc2)cc1 (stereo not drawn) | i | 100 | 1 | . | . | . | .
N/C(=N\OS(=O)(=O)c1ccccc1)c1ccccn1 | i | 102 | 0.96 | 180 | -1.9 | -2 | 26
CCc1oc(C(=O)OC)cc1CSC(=N)N | i | 99 | 0.9 | . | . | . | .
O=C(CN1C(=O)S/C(=C\c2ccc(F)cc2)C1=O)Nc1cccc(S(=O)(=O)NCc2ccco2)c1 | i | 103 | 1.1 | 73 | . | -3 | 17
CC(C)C(=O)Nc1ccc(C(=O)NCc2cccnc2)cc1 | i | 101 | 0.84 | 100 | -3.1 | 0 | -105
Cc1ccc(Oc2nc3c(c(=O)n(Cc4ccccc4F)c(=O)n3C)n2C)cc1 | i | 101 | 0.98 | 133 | -0.2 | -7 | 33
O=C(CSc1nc(-c2cccs2)cc(C(F)(F)F)n1)NCCCN1CCOCC1 | i | 110 | 0.97 | 100 | . | -8 | -17
O=C(COC(=O)CCOc1ccccc1)NCCC1=CCCCC1 | i | 101 | 0.92 | 132 | . | -3 | 7
Cn1c(=O)[nH]c(=O)c2c1nc1n2CCCS1 | i | 94 | 0.84 | 71 | -2.3 | 3 | -69
CC1CCN(c2c(NCC3CCC(C(=O)NCc4ccc(F)cc4)CC3)c(=O)c2=O)CC1 (stereo not drawn) | i | 102 | 0.85 | . | . | . | .
Cc1onc(-c2ccccc2Cl)c1C(=O)Nc1sc2c(c1C(N)=O)CCC(C)C2 (stereo not drawn) | . | 105 | . | 115 | -0.1 | 9 | 45
Cc1ccc(C(=O)Nc2ccc3c(c2)OCO3)cc1S(=O)(=O)N1CCCC1 | i | 106 | 0.93 | 110 | -2.0 | -4 | 3
O=C(CSc1nc2ccccc2s1)N1CCN(C(=O)c2ccco2)CC1 | i | 96 | 0.97 | 129 | 0.0 | -9 | 38
CCCCn1nnnc1NCc1cc(Cl)c(OC)c(OC)c1 | i | 99 | 1.1 | 98 | . | 6 | -21
Cc1cc(NC(=O)CSc2nnc(-c3ccc(Cl)s3)o2)no1 | i | 96 | 1 | 81 | -0.6 | -5 | -216
Cc1cc(C(=O)OCC(=O)Nc2cccc(S(=O)(=O)N3CCOCC3)c2)c(C)o1 | i | 99 | 1 | 41 | -1.5 | -5 | 37
CCOC(=O)CSc1nc(-c2ccccc2)nc2ccccc12 | i | 102 | 0.99 | 122 | -1.5 | -10 | 9
CCOC(=O)C1=C(C)Nc2nc(C)nn2C1c1cc(OC)ccc1OC (stereo not drawn) | i | 103 | 0.89 | 84 | -0.6 | -1 | 46
CCn1c(SCC(=O)c2ccc3ccccc3c2)nnc1-c1cccs1 | i | 99 | 0.75 | 84 | -1.5 | -12 | -66
Cn1c(CNc2nc(-c3ccccc3)cs2)nnc1SCC(=O)OC1CCCCC1 | i | 102 | 0.96 | . | -1.9 | -6 | .
Cc1ccc(Cn2c(Cc3ccccc3)nc3ccccc32)cc1 | i | 101 | 1 | 133 | -4.2 | 2 | 52
COc1ccc(C(=O)Nc2ccc3nc4n(c(=O)c3c2)CCCC4)cc1[N+](=O)[O-] | i | 98 | 0.92 | 111 | -1.2 | 13 | 6
Cc1cc(C(=O)Nc2sc(C)c(C)c2C#N)c(C)o1 | i | 102 | 1 | 57 | 0.0 | -10 | -26
CN1CCN(S(=O)(=O)c2cccc(C(=O)N3CCc4ccccc43)c2)CC1 | i | 100 | 0.99 | . | . | 7 | .
